Ecoli rRNA inh: reduced GFP signal of wild-type E. coli, primary screen, bacterial rRNA inhibitor project, GFP/RFP fluorescence, OD600, single point. E. coli WT GFP vs humanized-ribosome RFP mutants, 24 h; hits give low values; DMSO median 0, no signal -100. GFP signal change (wild-type ribosome), % (no concentration beside the values). actives 1.6% (n = 350,000);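 active = significant combined selectivity score with lowered wild-type GFP, culture density cut under 30%, mutant RFP and density less affected; inactive = any of these conditions unmet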; also: one replicate is shown; some compounds called inactive have numbers as strong as hits
Calb FLC: C. albicans growth inhibition with fluconazole, primary screen, CaCi-2 strain, Alamar Blue fluorescence | C. albicans CaCi-2 (fluconazole-resistant clinical isolate) + fluconazole, 48 h | growth inhibition, % (test concentration not listed) | actives 0.57% (n = 300,000) | AID 1979, 2009;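 active = most replicates above 75%; inconclusive = exactly half above 75%; inactive = most below 75%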;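 also: all wells also contain fluconazole at 8 µg/ml as a sub-toxic cotreatment; 0% = median of DMSO wells and 100% = median of geldanamycin control wells; wells of about 8 µL received 7.5 nL stock; the first replicate is given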
T cruzi inh: inhibitors of intracellular T. cruzi growth, primary screen, luminescence, NIH3T3 host cells. inhibition, % (concentration not given with the values). T. cruzi beta-gal in NIH3T3, 90 h. actives 1.4% (n = 300,000). AID 1885, 2009;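 active = mean inhibition across valid replicates above about 55%, limit read from the data; inconclusive = mean below that limit but half or more replicates reach it; inactive = mean below it, under half of replicates reach it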;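 also: signal also drops with host cell toxicity which is not excluded here; 0% = plate median of DMSO wells and 100% = zero luminescence signal; higher percent means less beta-gal luminescence so fewer parasites; stock transfer was 50 nL into about 50 µL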
RanGTP-Imp inh: inhibitors of RanGTP-importin-beta interaction, primary screen, biochemical, FRET, CFP-Ran, YFP-importin-beta, homogeneous; actives 1.1% (n = 300,000); inhibition, % (test concentration not listed); cell-free CFP-Ran/YFP-importin-beta FRET ratio;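 active = most replicates above 15%; inconclusive = exactly half above 15%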;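 also: 0% = DMSO wells and 100% = Ran loaded with GDP instead of GTP; wells of about 40 µL received 100 nL stock; the first replicate is given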
Beta cell apopt: inhibitors of cytokine-induced beta cell apoptosis, primary screen, luminescence; INS-1E cytokine-induced death, ATP luminescence, 48 h; percent of positive-control rescue, neutral wells zero; protection from apoptosis, % (test concentration not listed); actives 0.8% (n = 300,000); AID 435005, 2010;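 active = all replicates at 75% or more, or half of them and the mean; inconclusive = half reach 75% but not the mean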;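 also: 0% = cytokine-treated negative control wells and 100% = positive control rescue; higher means more ATP so stronger rescue from cytokine killing; wells of about 40 µL received 100 nL stock; the first replicate is given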
FGF22 binding: binders of human FGF22 protein, primary screen, FGF22 synaptogenesis inhibitor project, biophysical, thermal shift, single point; AID 651658, 2012; recombinant FGF22 thermal shift, SYPRO orange fluorescence; percent of sucrose octasulfate shift, DMSO zero; calls only at 9.99 µM; actives 1.5% (n = 340,000); Fibroblast growth factor 22 (Homo sapiens), Q9HCT0;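 active = melting point raised past a set limit in the mean and every replicate; inconclusive = no clear call; three in four hits are not shown here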
Target sequence (Q9HCT0 whole entry, looked up): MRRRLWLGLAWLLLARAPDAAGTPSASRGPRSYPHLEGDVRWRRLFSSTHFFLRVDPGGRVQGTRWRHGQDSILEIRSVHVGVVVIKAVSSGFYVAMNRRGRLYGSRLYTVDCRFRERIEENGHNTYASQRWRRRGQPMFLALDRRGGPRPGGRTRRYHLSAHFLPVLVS
ALR H2O2 inh: inhibitors of human ALR sulfhydryl oxidase, primary screen, biochemical, H2O2 detection, HRP-luminol luminescence, single point. purified ALR, DTT oxidation. actives 3.8% (n = 290,000). FAD-linked sulfhydryl oxidase ALR (Homo sapiens), P55789. inhibition, % (test concentration not listed);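 active = mean and each replicate at 75% or more; inconclusive = only one of the two met; inactive = neither met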;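 also: stock transfer was 7.5 nL into about 7.5 µL; 0% = neutral wells and 100% = wells with inactivated enzyme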
Target sequence (P55789 whole entry, looked up): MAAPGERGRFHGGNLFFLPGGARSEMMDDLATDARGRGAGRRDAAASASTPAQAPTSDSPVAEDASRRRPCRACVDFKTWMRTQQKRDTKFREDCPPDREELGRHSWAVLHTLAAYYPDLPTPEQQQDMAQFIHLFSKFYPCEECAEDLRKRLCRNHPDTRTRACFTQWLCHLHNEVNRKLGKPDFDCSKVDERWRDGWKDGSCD
AF4-AF9 inh: inhibitors of AF4 peptide binding to AF9, primary screen, biochemical, AlphaScreen, biotin-AF4 peptide, FLAG-AF9, single point | Protein AF-9 (Homo sapiens), P42568 | inhibition, % at 10 µM | actives 0.47% (n = 350,000);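 active = every replicate reaching a set inhibition limit, whatever the replicate mean, cut at about 25% in these data; inconclusive = mean inhibition reaches that limit but some replicates miss it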;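 also: 0% = plate neutral control median and 100% = total signal loss; the record names both 10 and 1 µM as test concentration; the first replicate is given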
Target sequence (P42568 whole entry, looked up): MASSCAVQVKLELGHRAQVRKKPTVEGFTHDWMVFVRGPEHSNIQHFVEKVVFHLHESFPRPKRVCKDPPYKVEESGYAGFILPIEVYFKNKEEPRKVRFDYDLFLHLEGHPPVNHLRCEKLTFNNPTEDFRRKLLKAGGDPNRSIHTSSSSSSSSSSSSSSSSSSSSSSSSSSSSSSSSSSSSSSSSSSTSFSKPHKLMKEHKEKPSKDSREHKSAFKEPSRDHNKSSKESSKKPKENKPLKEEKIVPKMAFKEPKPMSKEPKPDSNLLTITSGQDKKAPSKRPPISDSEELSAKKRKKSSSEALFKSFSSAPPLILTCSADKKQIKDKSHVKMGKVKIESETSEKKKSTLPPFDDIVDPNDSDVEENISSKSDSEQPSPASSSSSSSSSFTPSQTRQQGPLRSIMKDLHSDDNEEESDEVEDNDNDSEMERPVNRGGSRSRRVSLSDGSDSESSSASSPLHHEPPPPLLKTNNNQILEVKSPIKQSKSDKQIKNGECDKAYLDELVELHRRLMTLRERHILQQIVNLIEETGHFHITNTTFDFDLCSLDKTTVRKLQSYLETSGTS
Ecoli rRNA inh OD600: further read-out of Ecoli rRNA inh, marked with its call; OD600 change, %; measured here: OD600 growth;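 optical density of the mix in the first replicate; 0 = DMSO median and -100 = no signal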
Ecoli rRNA inh RFP: further read-out of Ecoli rRNA inh, marked with its call; RFP signal change, %; measured here: RFP humanized mutant strains;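 first replicate; 0 = DMSO median and -100 = no signal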
Starred values were filed as active, the others as inactive. An excerpt; rates above refer to the full screens.

For O=C(NCCCN1CCCC1)c1ccc(Cn2c(=S)[nH]c3ccc(Br)cc3c2=O)cc1 the results were Ecoli rRNA inh 6, Calb FLC 18, T cruzi inh 34, RanGTP-Imp inh 4.2, Beta cell apopt -5, FGF22 binding inactive, ALR H2O2 inh 46, AF4-AF9 inh 1.1, Ecoli rRNA inh OD600 3 and Ecoli rRNA inh RFP -4.7.
COc1cc2c(cc1NC(=O)COC(=O)[C@@H](NC(=O)c1ccccc1)C(C)C)oc1ccccc12 was read as Calb FLC -9, T cruzi inh 5, RanGTP-Imp inh 4.5, Beta cell apopt 3, FGF22 binding inactive, ALR H2O2 inh -5 and AF4-AF9 inh 2.6.
`O=C(CCc1ccccc1)NNC(=O)Nc1ccc(Br)cc1` gave Ecoli rRNA inh -9, Calb FLC 6, T cruzi inh 5, RanGTP-Imp inh 3.1, Beta cell apopt 0, FGF22 binding inactive, ALR H2O2 inh 1, AF4-AF9 inh 0.8, Ecoli rRNA inh OD600 -12 and Ecoli rRNA inh RFP 5.9.
O=C1N/C(=C\c2ccc(O)cc2)C(O)=C1C=NCc1ccccc1 was read as Calb FLC 1, T cruzi inh -7, RanGTP-Imp inh -2.2, Beta cell apopt -3 and ALR H2O2 inh 10.
Screening COc1ccc(Nc2ncnc3sccc23)c(OC)c1 returned Ecoli rRNA inh 8, Calb FLC -7, T cruzi inh 3, RanGTP-Imp inh -0.5, FGF22 binding inactive, ALR H2O2 inh -13, AF4-AF9 inh 3.3, Ecoli rRNA inh OD600 6 and Ecoli rRNA inh RFP -2.2.
For CN(C)CCCNc1c2c(nc3ccccc13)CCC2 the results were Ecoli rRNA inh 18, Calb FLC -5, T cruzi inh 39, RanGTP-Imp inh 0.9, Beta cell apopt 24, FGF22 binding inactive, ALR H2O2 inh -5, AF4-AF9 inh 8.3, Ecoli rRNA inh OD600 3 and Ecoli rRNA inh RFP -0.2.
For Cc1nn(C)cc1CNC(=O)c1cnn2c(C(F)F)cc(C3CC3)nc12 the results were Calb FLC 4, T cruzi inh -21, RanGTP-Imp inh 1.4, Beta cell apopt 0 and ALR H2O2 inh 1.
For COc1nc(NC(C)=O)nc(C)c1Br the results were Calb FLC 1, T cruzi inh -10, RanGTP-Imp inh 4.6, Beta cell apopt -2 and ALR H2O2 inh -10.
O=C(ON=C1CCSCC1)c1ccccc1 was read as Calb FLC 7, T cruzi inh -13, RanGTP-Imp inh 4.2, Beta cell apopt 2 and ALR H2O2 inh -3.
For Cc1ccc(-c2cc(=O)c3ccccc3[nH]2)cc1 the results were Ecoli rRNA inh 15, Calb FLC 20, T cruzi inh -15, RanGTP-Imp inh 4.8, Beta cell apopt 3, FGF22 binding inactive, ALR H2O2 inh 5, AF4-AF9 inh -8.3, Ecoli rRNA inh OD600 -1 and Ecoli rRNA inh RFP -7.6.
For Oc1ccc(/C=N/Nc2cc(N3CCCC3)nc(N3CCCC3)n2)cc1O the results were Ecoli rRNA inh 5, Calb FLC -1, T cruzi inh -14, RanGTP-Imp inh -0.8, FGF22 binding inactive, ALR H2O2 inh 90*, AF4-AF9 inh -10, Ecoli rRNA inh OD600 8 and Ecoli rRNA inh RFP 1.4.
`Cc1cccc(NCC(=O)NNC(=S)Nc2ccccc2)c1` gave Ecoli rRNA inh -4, Calb FLC 5, Beta cell apopt -3, FGF22 binding inactive, ALR H2O2 inh 37, AF4-AF9 inh -7.9, Ecoli rRNA inh OD600 -1 and Ecoli rRNA inh RFP 9.4.
For CCCSCCCNC(=O)Cn1cc2c(n1)CCCCC2 the results were Ecoli rRNA inh 0, Calb FLC 0, T cruzi inh -2, RanGTP-Imp inh -0.7, Beta cell apopt -2, FGF22 binding inactive, ALR H2O2 inh -6, AF4-AF9 inh 0.7, Ecoli rRNA inh OD600 -8 and Ecoli rRNA inh RFP -2.4.
COc1ccc(C(=O)Nc2cccc3cccnc23)cc1OC was read as Ecoli rRNA inh 1, Calb FLC 38, T cruzi inh 19, RanGTP-Imp inh -2.1, Beta cell apopt -6, FGF22 binding inactive, ALR H2O2 inh -16, AF4-AF9 inh -1.1, Ecoli rRNA inh OD600 11 and Ecoli rRNA inh RFP 2.9.
`Cc1ccc(NC(=O)/C=C/c2cccc([N+](=O)[O-])c2)nc1` gave Ecoli rRNA inh 8, Calb FLC -4, T cruzi inh -1, Beta cell apopt -24, FGF22 binding inactive, AF4-AF9 inh -1.4, Ecoli rRNA inh OD600 13 and Ecoli rRNA inh RFP 0.3.
Screening CCCCc1n[nH]c2c1/C(=N/O)CC(c1ccccc1)C2 (centres undefined) returned Calb FLC -3, T cruzi inh -3, RanGTP-Imp inh -1.6, Beta cell apopt 6 and ALR H2O2 inh -4.
`Cc1cc(NC(=O)CSc2nnc(Nc3ccccc3C)s2)no1` gave Ecoli rRNA inh 12, Calb FLC -13, T cruzi inh 2, RanGTP-Imp inh -0.8, Beta cell apopt 3, FGF22 binding inactive, AF4-AF9 inh -16, Ecoli rRNA inh OD600 2 and Ecoli rRNA inh RFP -4.9.
Cc1cnn(Cc2ccccc2)c1N was read as Calb FLC -18, T cruzi inh -8, RanGTP-Imp inh -1.2, Beta cell apopt -3 and ALR H2O2 inh 4.
`Cc1cc(C(=O)OCC(=O)Nc2cc(S(=O)(=O)N(C)C)ccc2Cl)c2ccccc2n1` gave Ecoli rRNA inh 8, Calb FLC 5, T cruzi inh -6, RanGTP-Imp inh -0.4, Beta cell apopt -9, FGF22 binding inactive, ALR H2O2 inh -5, AF4-AF9 inh -1.1, Ecoli rRNA inh OD600 2 and Ecoli rRNA inh RFP 5.3.
`CCCCN(C(=O)C1CC(=O)N(c2ccc3c(c2)OCCO3)C1)c1c(N)n(CCCC)c(=O)[nH]c1=O` (centres undefined) gave Ecoli rRNA inh 7, Calb FLC 1, T cruzi inh -9, Beta cell apopt -5, FGF22 binding inactive, ALR H2O2 inh -8, AF4-AF9 inh 6.6, Ecoli rRNA inh OD600 4 and Ecoli rRNA inh RFP -0.9.
Screening COc1ccc(CCNC(=O)CN(C)S(=O)(=O)c2cccs2)cc1OC returned Calb FLC -6, T cruzi inh 6, RanGTP-Imp inh -1.5, Beta cell apopt -1 and ALR H2O2 inh 10.
`CCOc1ccc(OCCC(=O)OCC(=O)Nc2ccc(C)c(S(=O)(=O)N3CCCCC3)c2)cc1` gave Ecoli rRNA inh 2, Calb FLC 1, T cruzi inh -11, RanGTP-Imp inh -1.5, Beta cell apopt -8, FGF22 binding inactive, AF4-AF9 inh 0.8, Ecoli rRNA inh OD600 -4 and Ecoli rRNA inh RFP -1.1.
Screening O=C(NC(=S)N1CCN(Cc2ccccc2)CC1)c1cccnc1 returned Ecoli rRNA inh 14, Calb FLC -8, T cruzi inh -10, RanGTP-Imp inh 1.2, Beta cell apopt 0, FGF22 binding inactive, ALR H2O2 inh 4, AF4-AF9 inh -0.9, Ecoli rRNA inh OD600 10 and Ecoli rRNA inh RFP 1.3.
`O=c1[nH]c2ccccc2c(O)c1SCCO` gave Ecoli rRNA inh -2, Calb FLC 2, T cruzi inh -8, RanGTP-Imp inh 4.8, Beta cell apopt 3, FGF22 binding inactive, ALR H2O2 inh 2, AF4-AF9 inh -1.1, Ecoli rRNA inh OD600 7 and Ecoli rRNA inh RFP -3.5.
`COc1ccc(C2CC(c3ccccc3)=NN2C(=O)COC(=O)C2(C)CC2(Cl)Cl)cc1` (centres undefined) gave Ecoli rRNA inh 8, Calb FLC 12, T cruzi inh 38, RanGTP-Imp inh 7.1, Beta cell apopt 0, FGF22 binding inactive, ALR H2O2 inh -4, AF4-AF9 inh 4.4, Ecoli rRNA inh OD600 -1 and Ecoli rRNA inh RFP -0.3.
For Cc1ccc(-c2nc3cccnc3o2)cc1NC(=O)COc1ccc(Cl)cc1C the results were Calb FLC 2, T cruzi inh 7, RanGTP-Imp inh 0.9 and Beta cell apopt 64.
`Cc1ccccc1-c1nc(CN2CCN(C(=O)c3ccco3)CC2)c(C)o1` gave Ecoli rRNA inh 4, Calb FLC -5, T cruzi inh -6, RanGTP-Imp inh 0.8, Beta cell apopt -1, FGF22 binding inactive, ALR H2O2 inh 1, AF4-AF9 inh -1.9, Ecoli rRNA inh OD600 2 and Ecoli rRNA inh RFP -0.2.
NS(=O)(=O)c1ccc(NC(=O)c2ccc3c(c2)OCO3)cc1 was read as Ecoli rRNA inh 13, Calb FLC 2, T cruzi inh -14, RanGTP-Imp inh -1.5, Beta cell apopt 1, FGF22 binding inactive, ALR H2O2 inh -6, AF4-AF9 inh -3.7, Ecoli rRNA inh OD600 9 and Ecoli rRNA inh RFP -0.9.
For COC(=O)c1ccc(-c2ccc(/C=N/N3C(=O)C4C5C=CC(C6CC56)C4C3=O)o2)cc1 (centres undefined) the results were Calb FLC -4, T cruzi inh 22, RanGTP-Imp inh -1.7, Beta cell apopt -10 and ALR H2O2 inh -74.
For Cc1ccccc1Cn1nnc(-c2cccc(C(=O)O)c2)n1 the results were Calb FLC 0, T cruzi inh -4, RanGTP-Imp inh 16*, Beta cell apopt 0 and ALR H2O2 inh 57.
`CC(Oc1ccc(Br)cc1)C(=O)Nc1nnc(C2CC2)s1` (centres undefined) gave Ecoli rRNA inh -7, Calb FLC 33, T cruzi inh -2, RanGTP-Imp inh -2.9, FGF22 binding inactive, ALR H2O2 inh 1, AF4-AF9 inh -1.0, Ecoli rRNA inh OD600 -33 and Ecoli rRNA inh RFP -1.5.
Screening CC(=O)n1cc(C2C(=O)CCCC2=O)c2ccccc21 returned Calb FLC 4, T cruzi inh -11, RanGTP-Imp inh 1.6, Beta cell apopt -7 and ALR H2O2 inh -5.
Screening COc1ccc(NC(=O)c2ccccc2NC(=O)NC2CCCCC2)cc1 returned Calb FLC 7, T cruzi inh 2, RanGTP-Imp inh 4.0, Beta cell apopt -1 and ALR H2O2 inh -4.
`CC(C)NC(=O)COc1coc(CN2CCN(c3ccccc3)CC2)cc1=O` gave Ecoli rRNA inh 4, Calb FLC -4, T cruzi inh -4, RanGTP-Imp inh 2.7, FGF22 binding inactive, ALR H2O2 inh 50, AF4-AF9 inh 1.6, Ecoli rRNA inh OD600 0 and Ecoli rRNA inh RFP -1.3.
`CC(=O)c1ccc(S(=O)(=O)N2CCN(CC(=O)NC(=O)NC3CCCCC3)CC2)cc1` gave Ecoli rRNA inh 4, Beta cell apopt 0, FGF22 binding inactive, ALR H2O2 inh 43, AF4-AF9 inh 5.4, Ecoli rRNA inh OD600 2 and Ecoli rRNA inh RFP 1.4.
`CO/N=C(\c1nonc1N)N1CCN(c2ccc(Cl)cc2[N+](=O)[O-])CC1` gave Calb FLC -22, T cruzi inh 5, RanGTP-Imp inh inconclusive, Beta cell apopt 5 and ALR H2O2 inh -13.
COc1cccc(-n2nc(-c3ccnn3-c3ccc(F)cc3)c(=O)n(C)c2=O)c1 was read as Calb FLC 2, T cruzi inh 15, RanGTP-Imp inh 1.5, Beta cell apopt -5 and ALR H2O2 inh -1.

Assay outcomes deposited in PubChem BioAssay by Broad Institute.
